RE007 growth inh – qHTS Assay for Inhibitors of the HIV-1 protein Vpr; S. pombe RE007 Vpr strain, BacTiter-Glo ATP luminescence, 24 h; control for the full effect not named in the record; Potency, µM (titrated, usually from 92.2 µM), without a hit: at the highest dose activity change, negative = less growth; actives 0.21% (n = 360,000); AID 651644, 2012; active = well fitted falling curve with a large enough effect; inconclusive = small, poorly fitted or top-dose-only effect; inactive = no such curve, though single readings can be large or run the other way;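 note: % is set by controls: 0 for no effect and ±100 for the full control effect; nearly all actives have a fitted effect of over 50% in size; the assay follows cell death caused by Vpr and the record does not say whether a fall means rescue or toxicity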
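Fission yeast RE007 carrying one integrated HIV-1 vpr copy, seeded at OD 0.01 in PMG+AL medium with 23 nL pinned compound. Grown 24 h at 30 degrees; viability read by BacTiter-Glo luminescence after 5 min.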
SARS PLpro yeast – qHTS of Yeast-based Assay for SARS-CoV PLP; Potency, µM (top dose mostly 32.9 µM), without a hit: at the highest dose activity, positive = growth rescue; S. cerevisiae expressing SARS-CoV PLpro, growth rescue; control for the full effect not named in the record; actives 0.19% (n = 330,000); AID 485353, 2010; note: 0% is about no effect; nearly all actives have a fitted effect of over 55% in size; growth read by luminescence after 48 h
Cruzain inh noDet – qHTS Assay for Promiscuous and Specific Inhibitors of Cruzain (without detergent); Cruzipain (Trypanosoma cruzi), P25779; purified cruzain, Z-FR-AMC fluorescence, no detergent; Potency, µM, inactives show max response, negative = inhibition, usual class: inhibitors; actives 2.3% (n = 200,000); AID 1476, 2009; active = well fitted curve in the direction sought with a large enough effect; inconclusive = small, poorly fitted or top-dose-only effect, or another doubt; inactive = no such curve, though single readings can be large; an effect the other way counts as inactive or inconclusive;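 note: plate controls were enzyme without inhibitor for no effect and buffer without enzyme for full effect; nearly all actives have a fitted effect of over 40% in size; top concentration of the series not given in the record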
Target sequence (P25779 123-467 limits assumed): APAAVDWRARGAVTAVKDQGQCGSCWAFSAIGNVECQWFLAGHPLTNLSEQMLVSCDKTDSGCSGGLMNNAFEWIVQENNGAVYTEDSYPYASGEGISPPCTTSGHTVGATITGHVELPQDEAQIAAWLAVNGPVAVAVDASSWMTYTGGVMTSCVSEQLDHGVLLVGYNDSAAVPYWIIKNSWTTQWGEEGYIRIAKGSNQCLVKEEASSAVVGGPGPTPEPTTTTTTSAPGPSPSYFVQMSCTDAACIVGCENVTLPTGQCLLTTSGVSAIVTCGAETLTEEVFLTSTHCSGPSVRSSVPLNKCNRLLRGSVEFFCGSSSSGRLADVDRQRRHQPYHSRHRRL
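Purified cruzain at 1.5 nM, pre-incubated 15 min with compound at room temperature in 100 mM sodium acetate pH 5.5, 5 mM DTT, 0.00005% Triton X-100. Reaction started with 2 uM Z-FR-AMC; AMC fluorescence increase over 60 s gives rate.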
Marburg entry inh – qHTS for inhibitors of binding or entry into cells for Marburg Virus | Marburg virus pseudotyped entry inhibition, cell reporter; control for the full effect not named in the record; about a third of the inactives were read at about 46 µM | Potency, µM (titrated, usually from 37.8 µM), without a hit: at the highest dose activity change, negative = inhibition, usual class: inhibitors | actives 1.8% (n = 300,000); active = well fitted inhibition curve with a large enough effect; inconclusive = small, poorly fitted or top-dose-only effect, or effect the other way; inactive = flat fitted curve, though single readings scatter; tested in HEK293 cells; about a fifth of its hits are not listed in these tables; note: % is set by controls: 0 for no effect and ±100 for the full control effect; luciferase read-out
Cruzain Triton – qHTS Assay for Promiscuous and Specific Inhibitors of Cruzain (with detergent); Cruzipain (Trypanosoma cruzi), P25779; purified cruzain, Z-FR-AMC fluorescence, 0.01% Triton; Potency, µM, for inactives: max response, negative = inhibition, usual class: inhibitors; actives 0.43% (n = 200,000); AID 1478, 2009; active = well fitted curve in the direction sought with a large enough effect; inconclusive = small, poorly fitted or top-dose-only effect, or another doubt; inactive = no such curve, though single readings can be large; an effect the other way counts as inactive or inconclusive;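 note: plate controls were neutral wells for no effect and buffer without enzyme for full effect; nearly all actives have a fitted effect of over 40% in size; top concentration of the series not given in the record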
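15 min RT preincubation of 1.5 nM cruzain with compound, then 2 uM Z-FR-AMC added; kinetic AMC fluorescence, 60 s delta. Triton X-100 0.01%, pH 5.5.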
StopGo reporter – High Throughput Screening for Foot and Mouth Disease Virus Antivirals | human cells with a luciferase reporter of 2A StopGo recoding; control for the full effect not named in the record | Potency, µM (top dose mostly 57.9 µM), for inactives: top-dose signal change, negative = less light | actives 1.2% (n = 410,000); active = well fitted falling curve with a large enough effect; inconclusive = small, poorly fitted or top-dose-only effect; inactive = no such curve, though single readings can be large or run the other way; tested in HEK293T cells; note: % is set by controls: 0 for no effect and ±100 for the full control effect; nearly all actives have a fitted effect of over 45% in size; luciferase light after 4 h
NS1 inh – qHTS Assay for Inhibitors of Influenza NS1 Protein Function; S. cerevisiae slowed by influenza A NS1, growth recovery by OD600; Potency, µM (highest dose often 46.1 µM), for the others: top-dose activity, positive = more growth; actives 0.4% (n = 270,000); AID 2326, 2010; note: actives are rising curves; nearly all actives have a fitted effect of over 50% in size
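Compounds were scored for reversing the slow growth caused by influenza A NS1 in S. cerevisiae, measured by optical density at 600 nm. Assay medium contained 2% galactose at pH 6.0; NS1-free yeast of the same strain were the positive control.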
LASV entry inh – qHTS for Inhibitors of binding or entry into cells for Lassa Virus; Lassa virus pseudotype entry inhibition, cell reporter; control for the full effect not named in the record; Potency, µM (titrated, usually from 37.9 µM), inactives show at the top dose activity change, negative = inhibition, actives largely listed as inhibitors; actives 1.2% (n = 300,000); active means well fitted inhibition curve with a large enough effect; inconclusive means small, poorly fitted or top-dose-only effect, or effect the other way; inactive means flat fitted curve, though single readings scatter; tested in HEK293 cells; note: % is set by controls: 0 for no effect and ±100 for the full control effect; nearly all actives have a fitted effect of over 50% in size; luciferase read-out
* = called active by the depositor; ? = inconclusive; . = no result given; & = joins results of further samples; [ ] = dose if it differs, or a comment. Unless noted, calls come from the whole dose curve; as a rule, active means well fitted rising curve with a large enough effect; inconclusive means small, poorly fitted or top-dose-only effect; inactive means no such curve, though single readings can be large or run the other way. Potency is the fitted concentration of half-maximal effect.

SMILES	RE007 growth inh	SARS PLpro yeast	Cruzain inh noDet	Marburg entry inh	Cruzain Triton	StopGo reporter	NS1 inh	LASV entry inh
CC(=O)Nc1ccc(NC(=O)C2CCCN2C(=O)Nc2ccc(F)c([N+](=O)[O-])c2)cc1 (stereo not given)	1%	0%	.	-4%[46.1 µM]	.	17%	4%	26%
C=CCn1c(SCC(=O)O)nnc1-c1cccc(Cl)c1	26%	5%	-11%	-3%	3.9%	0%	-6%	16%
Cc1ccccc1NC(=O)CC(=O)c1ccccc1	1%	-6%	.	.	.	50%[activator]	13%	.
Cc1cc(NC(=O)C(C)Oc2ccc(C(C)(C)C)cc2)no1 (stereo not given)	-6%	-6%	.	.	.	?	-15%	.
Cc1cc(NC(=O)Cn2cnc3c(cnn3C(C)(C)C)c2=O)no1	-13%	9%	8%	3%	-0.4%	-2%	2%	10%
Cc1ccc(S(=O)(=O)N(C)c2ccc(OCC(=O)Nc3nc(-c4ccccc4)cs3)cc2)cc1	1%	6%	7.9µM*	?	-1.2%	-29%	32%	?
COC(=O)c1cc(NC2c3ccccc3C(=O)N2c2cccnc2)cc(C(=O)OC)c1 (stereo not given)	1%	19%	-3%	.	-6.8%	-9%	-19%	.
CCOc1ccc(S(=O)(=O)Nc2ccc(C(=O)N(C)CC(=O)Nc3ccc(OC)cc3)cc2)cc1	19%	-4%	.	7%	.	-14%	.	-11%[46.1 µM]
Cc1ccc(OCC(=O)O/N=C(\N)c2cccc([N+](=O)[O-])c2)cc1C	8%	-2%	.	21%[46.1 µM]	.	-9%	-2%	13%[46.1 µM]
CCn1c(COc2ccc(C(C)C)cc2)nnc1SCC(=O)Nc1nccs1	-10%	-1%	-10%	-10%	6.6%	13%	9%	-2%
S=C(Nc1ccccc1)N1N=C(c2cccs2)CC1c1cccs1 (stereo not given)	-8%	2%	.	?	.	21%	12%	?
CC1=CC(c2ccc(Cl)cc2)n2nc(NC(=O)CCC(=O)O)nc2N1 (stereo not given)	17%	1%	.	2%[46.1 µM]	.	-11%	-4%	24%
Cc1ccc(O)c(-c2[nH]ncc2C(=O)c2ccc(Cl)cc2)c1	16%	-1%	.	?	.	-15%	-3%	-36%[46.1 µM]
Brc1cccc(CNCC2CCCO2)c1 (stereo not given)	-1%	-2%	.	-15%	.	2%	-4%	-4%
CCOC(=O)C1(Cc2cccc(OC)c2)CCN(Cc2csc(C(C)=O)c2)CC1	-10%	0%	.	?	.	?	-3%	-1%
Cc1nc(-c2ccccn2)nc(N(C)c2ccccc2)c1Cl	-11%	-7%	.	.	.	-8%	-79%	.
O=c1oc2c(CN3CCOCC3)c(O)c(Cl)cc2c2c1CCC2	.	3%	?	.	25µM*	.	-4%	.
O=C(O)c1ccc2c3c(ncnc13)-c1ccccc1C2=O	?	-9%	-22%	0%	-4.3%	-15%	-174%	-6%
COc1ccc(CN(C(=O)CSc2nnc(-c3ccccc3C)o2)c2ccc(F)cc2)cc1	16%	-2%	-9%	?	-4.7%	?	13%	-17%
Cc1cc(=O)oc(C)c1C(=O)N[C@@H]1CCCCNC1=O	40%	4%	-3%	5%	2.1%	-16%	5%	1%
CNCc1ccccc1Sc1ccc(OC)c(OC)c1	5%	1%	0%	0%	2.9%	-24%	0%	0%
COc1ccc(NC(=O)Cc2c(C(=O)O)n(C)c3ccccc23)cc1OC	1%	-1%	.	?	.	-16%	.	12%
CCOC(=O)C1CCN(C(=O)c2cccnc2)CC1	1%	3%	5%	-14%	0.5%	-7%	-4%	6%
CCNCCNc1ccc(Cl)cc1[N+](=O)[O-]	2%	.	.	?	.	-15%	.	-9%
Cc1c(-c2ccccc2)nc2c(Cl)cccc2c1C(=O)OCC(=O)c1ccc(F)cc1	.	.	18%	10%[46.1 µM]	-1.4%	?	.	-2%[46.1 µM]
COc1ccc(C(c2nnnn2C(C)(C)C)N2CCN(C)CC2)cc1OC (stereo not given)	39%	-1%	-7%	3%	6.4%	-16%	2%	4%
Cc1ccccc1C(=O)NNC(=O)c1cccn1C	4%	2%	.	13%[46.1 µM]	.	5%	.	10%
CCN(C(=O)Cn1c(=O)n(CCCS(=O)(=O)C2CCCCC2)c(=O)c2ccccc21)c1cccc(C)c1	.	.	8%	6%[46.1 µM]	-1.8%	-25%	.	1%[46.1 µM]
C/C(=N\NC(=O)c1cccc(N/N=C(\C)c2ccccc2)c1)c1ccccc1	-11%	22%	?	?	-6.6%	41%[activator]	20%	0%
COCCCNC(=O)c1cc(S(=O)(=O)N2CCOCC2)ccc1SCc1cccc(OC)c1OC	-11%	0%	.	-6%[46.1 µM]	.	6%	.	?
O=C(NC1CCCCCC1)c1nnc(Cc2ccc(Cl)cc2)o1	-28%	-2%	6%	18%&-1%	-2.2%	-10%	-21%	?
CCc1c(C)nc(SCCOc2ccc(OC(C)C)cc2)[nH]c1=O	-8%	5%	-11%	?	-8.4%	?	-11%	-8%
COc1ccc(CCN(C)Cc2ccc(C(=O)Nc3ccccc3)cc2)cc1OC	3%	0%	.	?	.	-25%	6%	?
COc1ccc(OC)c(CC2C(=O)Nc3ccc(Br)cc32)c1 (stereo not given)	.	.	?	?	-13%	13µM*	.	?
Cc1ccc(NC(=O)c2ccc(Cl)nc2)cc1S(=O)(=O)N1CCOCC1	0%	-6%	.	?	.	?	.	?
CC1(C)Cc2c(C#N)c(N3CCN(C(=O)c4ccco4)CC3)nc(Cc3ccccc3)c2CO1	6%	5%	14%	?	-1.4%	40µM*	6%	-30%
Clc1ccc(N2CCN(/N=C/c3cccnc3)CC2)cc1	2%	-2%	.	.	.	?	10%	.
Cc1ccc(CCNC(=O)CCCn2c(=O)c3ccccc3n(CC(=O)Nc3cc(Cl)ccc3C)c2=O)cc1	.	.	9%	-6%[46.1 µM]	7.9%	0%	.	-2%[46.1 µM]
Cc1sc2ncn(CC(=O)N3CCN(c4ccccn4)CC3)c(=O)c2c1S(=O)(=O)N1CCCCC1	1%	2%	.	-20%[46.1 µM]	.	?	-9%	-2%
CCc1c(C)sc(NC(=O)c2cc(-c3ccc(OC)cc3)on2)c1C#N	.	.	-1%	?	-1.1%	-12%	.	23%[46.1 µM]
CN1CC[C@@]23CCCC[C@@H]2[C@@H]1Cc1ccc(O)cc13	-18%[18.4 µM]	1%	6%	?	-3.2%	0%	0%	-21%
O=C(CN1CCCC1c1cccs1)Nc1cc(S(=O)(=O)N2CCCC2)ccc1Cl (stereo not given)	-24%	-4%	.	-6%[46.1 µM]	.	-21%	.	?
CC(=O)c1c(C)[nH]c(C(=O)NNC(=O)COc2cc(C)cc(C)c2)c1C	3%	2%	.	-13%	.	25%	.	6%
CN(C)c1oc(-c2ccco2)nc1S(=O)(=O)c1ccc(Br)cc1	14%	0%	.	-18%	.	25%	.	-5%
CN(CC(=O)Nc1ccc(N2CCOCC2)cc1)C(=O)c1ccc(CS(C)(=O)=O)cc1	32%	11%	.	8%[46.1 µM]	.	6%	.	3%[46.1 µM]
Cc1ccc2oc(=O)c3cnn(CC(=O)NCCCOC(C)C)c3c2c1	1%	1%	-10%	.	-0.3%	?	-39%	.
CC(C(=O)N=Nc1c(O)[nH]c2ccccc12)n1cnc2ccccc2c1=O (stereo not given)	.	4%	-10%	?	-5.1%	2%	-3%	-11%
COc1ccc(-c2noc(CCC(=O)Nc3ccc(C)c(C)c3)n2)cc1	-6%	2%	7%	3%	-10%	0%	-15%	-12%

Reprinted at random: 2 compounds from above, in no set order.
SMILES	RE007 growth inh	SARS PLpro yeast	Cruzain inh noDet	Marburg entry inh	Cruzain Triton	StopGo reporter	NS1 inh	LASV entry inh
CN(C)c1oc(-c2ccco2)nc1S(=O)(=O)c1ccc(Br)cc1	14%	0%	.	-18%	.	25%	.	-5%
CN(CC(=O)Nc1ccc(N2CCOCC2)cc1)C(=O)c1ccc(CS(C)(=O)=O)cc1	32%	11%	.	8%[46.1 µM]	.	6%	.	3%[46.1 µM]

(more compounds)
SMILES	RE007 growth inh	SARS PLpro yeast	Cruzain inh noDet	Marburg entry inh	Cruzain Triton	StopGo reporter	NS1 inh	LASV entry inh
COc1ccc(C2C(C#N)=C(N)Oc3c2c(=O)oc2ccccc32)cc1Cn1cc([N+](=O)[O-])cn1 (stereo not given)	0%	-2%	25µM*	3%	-4.3%	21%	28%	7%
CC1=C(C(=O)OC(C)C)C(c2ccc(O)cc2)NC(=O)N1 (stereo not given)	-5%	?	.	6%[46.1 µM]	.	-4%	0%	16%[46.1 µM]
COc1cc([N+](=O)[O-])ccc1NC(=O)CCCOc1cccc(C)c1	-21%	-17%	6%	-4%	-9.3%	1%	-61%	-16%
COc1ccc(N2C(=O)CCC(C(=O)Nc3cccc(C)n3)C2c2ccc(OC)c(OC)c2)cc1 (stereo not given)	4%	1%	?	?	0.3%	-3%	-5%	-13%
Cc1ccccc1N1CCN(C2CCCN(C(=O)CCc3c(C)noc3C)C2)CC1 (stereo not given)	2%	3%	.	?	.	?	-7%	-13%
Cc1cc2c(cc1S(=O)(=O)N1CC(C)CC(C)C1)OCC(=O)N2 (stereo not given)	13%	3%	.	.	.	-25%	-1%	.
Cc1ccc(OCC(=O)N/N=C\c2cccn2C)c([N+](=O)[O-])c1	-1%	-1%	.	26%[46.1 µM]	.	2%	5%	17%
CCOC(=O)c1cc2c(=O)n3ccccc3nc2n(Cc2ccco2)c1=NC(=O)c1ccc(OCC)cc1	.	.	-9%	2%[46.1 µM]	-0.7%	-12%	.	20%[46.1 µM]
COCCNc1c2c(nc3c(-c4ccccc4)c(C)nn13)CCC2	-14%	-1%	.	-2%[46.1 µM]	.	-19%	-4%	13%
C#Cc1ccc([C@H]2C=C(C(=O)Nc3ccccc3)O[C@@H](OCc3ccc(CO)cc3)C2)cc1	-9%	-1%	.	.	.	17%	-36%	.
